Bioassay records as filed in PubChem.
ugtP null kill: compounds lethal to S. aureus RN4220 ugtP deletion mutant; 330,000 compounds, 0.54% hits; OD600 growth, 16 h; some inactives read as strong as hits; growth inhibition, % (concentration not given with the values);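 active = z-score under -3 and OD600 up to 0.15 on both plates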;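 note: plate controls were untreated wells for no effect and antibiotic for full effect; wells of about 80 µL received 100 nL stock; the first replicate is given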
RN4220 kill: kills Staphylococcus aureus RN4220 | S. aureus RN4220 growth, OD600, 16 h | inhibition, % (test concentration not listed) | 330,000 compounds, 0.33% hits | AID 1259311;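 active = z-score of -3 or lower and OD600 up to 0.18 on both plates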;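 note: plate controls were untreated cells for no effect and reference antibiotic for full effect; stock transfer was 100 nL into about 80 µL; one replicate is shown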
Bead autofluor: compound fluorescence in toxin protease inhibitor counterscreen; AID 624483; compound autofluorescence counterscreen, microsphere flow cytometry; stronger effect = higher value; 360,000 compounds, 3.1% hits; fluorescence intensity (no concentration beside the values);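 active = at least 3 SD above the mean of all compounds, about 16000 in these data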;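 note: 100 nL of 1 mM stock went into each well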
Mtb hypoxia inh: reduces hypoxia-regulated biosensor signal in M. tuberculosis. M. tuberculosis hypoxia-regulated fluorescent reporter, fluorescence. AID 1159583. 300,000 compounds, 0.1% hits. fluorescence inhibition, % (test concentration not listed);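 active = 35 to 45% if threefold the growth effect, above 45% if 1.5-fold the growth effect; inactive = the rest, general growth blockers included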;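 note: wells of about 50 µL received 100 nL stock; 0% = vehicle wells and 100% = reference inhibitor wells; whole bacteria with a GFP reporter of the hypoxia response; strong numbers were not always called active; many hits fall short of the cut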
BJeLR lethal: BJeLR cell viability loss. BJeLR (HRASV12) viability, CellTiter-Glo ATP luminescence, 48 h; reference of the scale not given here. inhibition, % (no concentration beside the values). 300,000 compounds, 0.17% hits. AID 1554;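 active = replicate mean above 50%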;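 note: 50 nL library stock added to about 25 µL; numbers are from one replicate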
PrP 5UTR inh: inhibition of PrP 5' UTR reporter expression; cell-based PrP 5' UTR mRNA reporter, plate reader; inhibition, % (test concentration not listed); 340,000 compounds, 0.35% hits; AID 488862;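 active = every replicate at 50% or more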;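 note: 0 = median of the neutral control wells; tested in H4 reporter cells; numbers are from one replicate; inactives centre near -14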
Mtb hypoxia inh growth: also measured in Mtb hypoxia inh; calls as there; growth inhibition, %; measured here: M. tuberculosis growth (absorbance);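 0% = vehicle and 100% = reference antibiotic; read after six days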
Starred values were filed as active, the others as inactive; . = not tested or not shown.

Below each compound – ugtP null kill	RN4220 kill	Bead autofluor	Mtb hypoxia inh	Mtb hypoxia inh growth	BJeLR lethal	PrP 5UTR inh
- Cc1ccc(S(=O)(=O)c2nc(NCCN(C)C)sc2Cl)cc1
    2	1.4	10151	17	13	-3	7
- CCOc1ccc(NC(=O)c2ccccc2-c2ccccc2C(=O)O)cc1
    5	1.8	4227	.	.	3	-75
- CC(=O)c1cccc(NC(=O)NCc2cccs2)c1
    1	1.9	4106	-3	-2	-4	-8
- O=C(CN1CCOc2ccccc21)NC1CC1
    3	0.7	5615	.	.	-7	-27
- CCCNS(=O)(=O)c1cc(CN2C(=O)c3cccnc3C2=O)ccc1OC
    2	2.1	4291	3	2	8	-12
- OCCOCCn1c(CCNc2nc(-c3ccc(F)cc3)cs2)nc2cc(C(F)(F)F)ccc21
    7	-1.8	3977	2	-2	-1	-21
- CCOCCCn1c(=N)c(S(=O)(=O)c2ccccc2)cc2c(=O)n3cc(C)ccc3nc21
    -1	2.5	4146	7	7	-2	-18
- COc1ccc(CCNC(=O)N2CCOCC2)cc1
    -5	8.1	3304	.	.	-3	-32
- COc1ccc(-c2cc(C(=O)N(C)Cc3ccc(F)cc3)c3ccccc3n2)cc1OC
    7	5.0	4767	8	2	-7	-26
- Cc1ccc(C)c(CSC2=NCCN2C(=O)Cc2ccc([N+](=O)[O-])cc2)c1
    -3	2.3	2531	9	4	-14	-18
- CC1=C(C(N)=O)C(c2ccc(F)cc2)n2nc(CCCO)nc2N1 (stereo unspecified)
    6	0.4	3657	2	0	8	-16
- CCOC(=O)C1=C(CC)Nc2ccccc2N=C1NC(=O)c1cccc(S(=O)(=O)N2CCCC2)c1
    -4	-3.0	4485	-7	4	7	-20
- CCCc1nc(SCC(=O)Nc2ccc(S(=O)(=O)N(C)C)cc2)c2ccccc2n1
    -2	-0.4	7087	0	2	2	-34
- CCOC(=O)c1ccc(Nc2nc(N)c3cc(OC)c(OC)cc3n2)cc1
    0	3.1	3755	-14	-4	6	-24
- Cc1ccc2occ(C=NNC(N)=S)c(=O)c2c1
    0	5.1	.	1	-1	.	.
- COc1ccc(OCC(=O)NNC(=O)c2ccc3c(=O)n4c(nc3c2)CCC4)cc1
    0	4.0	6064	3	1	-1	-4
- CCOCc1nnc(NC(=O)c2cc(Cl)ccc2OC)s1
    2	0.1	3541	.	.	2	12
- COc1ccc(Cl)cc1-c1nc(SCC(=O)NC(C)C)n[nH]1
    13	-4.5	4338	17	10	-12	-2
- CCOc1ccc(-n2c(SCc3cc(=O)oc4cc(C)c(C(C)C)cc34)nnc2-c2cccnc2)cc1
    6	0.8	9681	17	6	-3	-24
- N#Cc1nc(-c2cccs2)oc1N1CCOCC1
    1	5.4	10379	0	6	-8	-10
- COC(=O)C1C(=O)NCC1c1ccc(OC)cc1 (stereo unspecified)
    6	4.2	17089*	-1	3	-22	-14
- CC(=C/c1ccccc1)/C=N/n1c(C)n[nH]c1=S
    .	.	2914	.	.	3	-9
- CCOC(=O)CNC(=O)N1CCC(CCOc2ccccc2)(C(=O)OCC)CC1
    8	3.8	3232	9	6	1	-15
- Cc1sc2nc(SCC(=O)NCCCO)n(-c3ccccc3)c(=O)c2c1C
    5	4.5	3392	14	3	-14	-21
- CCCCN(CC)C(=O)Cc1ccccc1OC
    14	3.3	2150	.	.	1	-1
- CS(=O)(=O)c1ccc(NC(=O)CN2C(=O)C3CCCCC3C2=O)cc1 (stereo unspecified)
    8	1.6	6026	15	12	1	-17
- O=S1(=O)c2ccccc2OC(COCc2ccccc2)CN1Cc1ccccc1 (stereo unspecified)
    20	4.8	3938	7	-1	.	-17
- COc1ccc(S(=O)(=O)N2CCC(C(=O)NC3(C)CCS(=O)(=O)C3)CC2)cc1OC (stereo unspecified)
    10	3.1	4920	5	1	12	0
- CCc1ccc(OC)c(-c2csc(N)n2)c1
    .	.	4283	.	.	-5	-6
- Cc1ccc(-c2[nH]ncc2/C=N/n2c(COc3ccccc3)nc3ccccc3c2=O)cc1
    .	.	2576	.	.	-3	-23
- C[C@@H]1C(=O)O[C@H]2[C@H]1CC[C@@]1(C)C(=O)C=C[C@@](C)(O)[C@H]21
    .	.	4184	.	.	-6	-8
- CC(C)OC(=O)C1C(=O)NC2(C)CC1c1ccccc1O2 (stereo unspecified)
    -3	-1.2	4345	-11	0	-1	-15
- COc1ccccc1N1C(=O)c2cccc3c(C(=O)O)ccc(c23)C1=O
    -2	6.0	10506	-9	5	7	3
- Cn1c(=O)c2c(nc(NC3CCCCC3)n2CC(O)COc2ccccc2)n(C)c1=O (stereo unspecified)
    5	8.6	3676	.	.	-1	-14
- CCOc1cc(C(=O)Nc2cc(C)ccc2OC)ccc1OCC(=O)N1CCCCC1
    3	9.1	7504	-2	-5	7	-10
- CSCCC(NC(=O)c1ccccc1Cl)C(=O)N1CCCCC1 (stereo unspecified)
    10	3.4	.	8	-4	.	.
- COc1ccc2c(c1)CCc1cn3ncc(C#N)c3nc1-2
    -11	-0.2	4440	-6	-8	13	-24
- CCOC(=O)N1CCN(CC(O)c2ccc3cc[nH]c3c2)CC1 (stereo unspecified)
    -4	-9.0	5847	8	10	-7	-7
- CCCN1Cc2cccc(C(=O)Nc3ccc4c(c3)OCCO4)c2C1=O
    7	3.9	5671	.	.	-2	-34
- O=C(NCc1ccncc1)c1cc(C(=O)C2CC2)c[nH]1
    1	1.5	4214	0	12	3	-19
- O=S(=O)(c1ccc(NC(=S)NC2CCCC2)cc1)N1CCCC1
    6	1.9	5044	11	2	1	-20
- COc1cccc(NC(=O)CN(C)C(=O)CC2CC3CCC2C3)c1 (stereo unspecified)
    3	-3.8	4574	-6	2	0	-15
- COc1ccc(NC(=O)CSc2nnc(CCC(=O)O)c(=O)n2N)cc1
    5	0.9	2113	5	-5	1	2
- C/C(=N/Nc1nc(C)cc(C)n1)c1ccc(Br)cc1
    .	.	3176	.	.	-13	-26
- COc1ccc2oc(=Nc3ccccc3)c(-c3nc4ccccc4[nH]3)cc2c1
    -14	2.9	1997	9	10	1	-54

One compound at a time, as listed above. Screens in order: ugtP null kill, RN4220 kill, Bead autofluor, Mtb hypoxia inh, Mtb hypoxia inh growth, BJeLR lethal, PrP 5UTR inh
`O=S(=O)(c1ccc(NC(=S)NC2CCCC2)cc1)N1CCCC1` is listed with 6, 1.9, 5044, 11, 2, 1, -20
`CSCCC(NC(=O)c1ccccc1Cl)C(=O)N1CCCCC1` (stereo unspecified) is listed with 10, 3.4, ., 8, -4, ., .
`COc1ccc2oc(=Nc3ccccc3)c(-c3nc4ccccc4[nH]3)cc2c1` is listed with -14, 2.9, 1997, 9, 10, 1, -54
`CCOc1cc(C(=O)Nc2cc(C)ccc2OC)ccc1OCC(=O)N1CCCCC1` is listed with 3, 9.1, 7504, -2, -5, 7, -10

Next results follow:
Below each compound – ugtP null kill	RN4220 kill	Bead autofluor	Mtb hypoxia inh	Mtb hypoxia inh growth	BJeLR lethal	PrP 5UTR inh
- COC1CCCN(Cc2c(C(=O)N3CCN(C4CCCCC4)CC3)nc3ccccn23)C1 (stereo unspecified)
    9	-1.1	4827	6	6	6	-18
- COC(=O)c1c(C(=O)OC)c2cc(C)ccn2c1Cl
    4	11	2917	18	18	-5	-14
- Nc1nn2cc(-c3ccc(Br)cc3)nc2c2ccccc12
    .	.	5231	.	.	10	-83
- CCOC(=O)C1CCN(C(=O)Cn2ncc3c([nH]c4ccccc43)c2=O)CC1
    2	0.8	5692	1	3	12	-8
- CC1CCCCC1NC(=O)CSc1nnc(CN2CCOCC2)n1C (stereo unspecified)
    -4	-1.2	4281	-6	-4	-5	0
- CCCOc1ccccc1C1CC(=O)Nc2cc3c(cc21)OCCO3 (stereo unspecified)
    -1	-5.1	4558	.	.	26	70*
- COc1ccc2cc(S(=O)(=O)N3CCCCC3)ccc2c1S(=O)(=O)N1CCCCC1
    4	-10	3221	-3	-2	14	-10
- c1ccc(-c2oc3ncnc(N4CCOCC4)c3c2-c2ccccc2)cc1
    2	2.8	.	6	10	-16	.
- CC1(C)CC(=O)C=C(Nc2ccc(F)c(Cl)c2)C1
    4	4.0	3584	4	1	-1	.
- CCCCC1=CC2=CC(=O)C(C)(OC(=O)CC)C(=O)C2=CN1Cc1ccccc1 (stereo unspecified)
    -3	7.7	3489	9	2	-2	-10
- COC(=O)C1=C(C(=O)OC)C2N(Cc3ccccc3)c3ccccc3[C@@]23CC(CO)N(C(=O)NC2CCCC2)C3=N1 (stereo partly specified)
    -1	0.4	.	2	14	.	.
- CN(C)S(=O)(=O)c1ccc(NC(=S)NC(=O)Cc2ccccc2)cc1
    4	-0.5	4551	4	4	0	-49
- CC(C)(C)CN1C(N)=NC[C@@H]1Cc1ccc(O)cc1
    .	.	3377	.	.	2	-26
- CC(C)C(C)(C#N)NC(=O)CSc1nc2scc(-c3ccccc3)c2c(=O)[nH]1 (stereo unspecified)
    3	3.3	7084	3	5	-4	-2
- Cc1nn(CC(=O)N(C)C)c(C)c1S(=O)(=O)N1CCOCC1
    2	3.7	5480	8	4	.	-8
- CCOC(=O)/C=C/c1ccccc1S(=O)(=O)NC(C)(C)C
    .	.	2887	.	.	-5	-24
- COc1ccc(CCNC(=O)CCS(=O)(=O)c2ccc3c(c2)NC(=O)CS3)cc1OC
    8	1.4	5509	-12	-1	-4	-21
- COC(=O)N/N=C/c1cn(CCOc2ccccc2)c2ccccc12
    .	.	4211	.	.	-4	-15
- O=C(N/C(=C/c1ccc([N+](=O)[O-])cc1)C(=O)N1CCOCC1)c1ccco1
    0	3.0	5874	5	0	0	-12
- CCOC(=O)c1n[nH]c(=O)c2ccccc12
    -1	2.8	4827	5	-2	-9	-30
- O=C(CSc1nnc(CNC(=O)c2cccc(C(F)(F)F)c2)o1)NC1CCCC1
    8	-2.2	4249	9	-18	7	-9
- COCCOC(=O)C1=C(C)N=C2SCCC(=O)N2C1/C=C/c1ccccc1 (stereo unspecified)
    -1	5.8	4365	4	8	-1	-2
- Cc1cc2nc(C)c3c(n2n1)CCC3
    12	6.8	3002	4	1	4	-19
- Cc1oc(C)c2c(=O)ccc3c(c12)OC(N)=C(C#N)C3c1ccccc1Cl (stereo unspecified)
    -19	-8.9	2317	.	.	0	0
- C=CCn1c2ccccc2c2nnc(SCN3C(=O)c4ccccc4C3=O)nc21
    -4	2.4	2884	.	.	10	-2
- CNS(=O)(=O)c1cccc(C(=O)OCC(=O)N(Cc2ccccc2)C(C)(C)C)c1
    8	4.4	2705	4	-5	1	-19
- O=c1c(=Cc2ccc(O)c([N+](=O)[O-])c2)sc2nc3ccccc3n12
    31	35	.	10	3	.	.
- CC(CC(=O)NCc1ccc(F)cc1)=NNC(N)=S
    -1	-1.7	.	-10	5	.	.
- O=c1c2c3c(sc2nc2sc(CN4CCCCC4)cn12)CCCC3
    3	0.3	.	2	13	6	.
- CN(C)CCCN1C(=O)C(=O)/C(=C(/O)c2ccncc2)C1c1cccnc1 (stereo unspecified)
    2	7.1	8126	5	6	-3	-26
- COc1ccc(CN2CCc3ccc(NC(=O)CCc4ccccc4OC)cc3C2)c(O)c1
    0	-0.7	5364	-4	-1	-1	-14
- CC(=NN1CCN(c2ccccc2)CC1)c1ccncc1
    4	8.5	.	18	3	.	.
- O=C(NCC1CCCO1)c1ccccc1NS(=O)(=O)c1cccs1 (stereo unspecified)
    -1	1.4	5176	14	9	5	-27
- COc1ccc(-n2nc(C(=O)NCC(=O)Nc3ccccn3)c3ccccc3c2=O)cc1Cl
    -8	8.1	4210	4	7	36	-10
- O=C(CCCc1cccs1)NCCc1c[nH]c2ccccc12
    11	3.5	3748	18	3	9	-12
- COc1ccccc1-n1c(SCC(N)=O)nnc1-c1ccc(S(=O)(=O)N2CCCCC2)cc1
    -5	1.5	22234*	-6	11	-14	-19
- COc1ccc(NC(=O)C2CCN(S(=O)(=O)c3cccs3)CC2)cc1OC
    4	3.5	2859	3	-3	.	5
- CCOC(=O)Cc1cc(=O)[nH]c(/N=C(/NC(=O)c2ccccc2)Nc2ccccc2C(F)(F)F)n1
    .	.	7885	.	.	3	-6
- CCn1cc(C(=O)NCCCN2CC(C)CC(C)C2)c(=O)c2cc(S(=O)(=O)N(C)C)ccc21 (stereo unspecified)
    -14	0.8	5662	.	.	-4	-2
- CC(=O)N1N=C(c2cccc(O)c2)CC1c1cccs1 (stereo unspecified)
    -4	1.8	3664	-1	13	-10	-17
